UUG fidelity: modulators of start codon recognition fidelity in yeast; S. cerevisiae UUG-firefly luciferase reporter, luminescence/redox ratio; activity score, % at 18.7 µM; 0.13% of 350,000 active;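 active = replicate mean at a twofold rise or more, about +100% in these data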;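 note: firefly luciferase made from a UUG start codon reports start codon fidelity; reporter light over untreated wells divided by growth signal over untreated wells; some hits fall short of that in this replicate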
Env fusion inh: inhibitors of HIV Env-mediated cell fusion; HeLa-JRFL Env/CEM21 cell fusion, luciferase; inhibition, % at 12.3 µM; 1.1% of 360,000 active; AID 651610;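 active = mean replicate inhibition score of at least 50 and every replicate individually at or above 50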;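 note: 0% = plate neutral controls and 100% = maraviroc near 300 nM; one replicate is shown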
Numbers without * were called inactive; [ ] = dose if it differs, or a comment. Not all compounds are listed; count on the stated rates, not on these rows.

UUG fidelity	Env fusion inh	canonical_smiles
12	-15[16.7 µM]	O=C(NCC[C@@H]1CC[C@@H](NC(=O)C2CCCCC2)[C@H](CO)O1)c1ccc(F)cc1
-5	0[16.7 µM]	CC(C)NC(=O)N(C)C[C@H]1Oc2cc(-c3cccnc3)ccc2S(=O)(=O)N([C@@H](C)CO)C[C@H]1C
12	7[16.7 µM]	COc1ccc(NC(=O)N(C)C[C@H]2OCCCC[C@H](C)Oc3ccc(N(C)C)cc3C(=O)N([C@H](C)CO)C[C@H]2C)cc1
-7	-1[16.7 µM]	O=C(C[C@H]1CC[C@@H](NC(=O)c2ccc(F)cc2)[C@H](CO)O1)NCCc1ccccc1
27	-14[16.7 µM]	Cc1noc(C)c1S(=O)(=O)Nc1ccc2c(c1)C(=O)N([C@@H](C)CO)C[C@H](C)[C@@H](CN(C)S(=O)(=O)c1c(C)noc1C)OCCCC[C@H](C)O2
10	8[16.7 µM]	C[C@@H]1CN([C@H](C)CO)C(=O)c2cc(NC(=O)CCC(F)(F)F)ccc2O[C@@H]1CN(C)Cc1ccc(Oc2ccccc2)cc1
15	-31[16.7 µM]	COc1ccc(CN(C)C[C@@H]2OCCCC[C@@H](C)Oc3ccc(NC(=O)Nc4ccccc4)cc3C(=O)N([C@H](C)CO)C[C@H]2C)cc1
-14	10[16.7 µM]	C[C@H](CO)N1C[C@H](C)[C@@H](CN(C)C(=O)Cc2ccncc2)Oc2cc(C#CC3CC3)ccc2S1(=O)=O
-20	0[16.7 µM]	COCC(=O)Nc1ccc2c(c1)C(=O)N(C)[C@H]1CC[C@H](CC(=O)NCc3ccccc3F)O[C@H]1CO2
5	-18[16.7 µM]	CCCC#Cc1cnc2c(c1)C(=O)N([C@H](C)CO)C[C@@H](C)[C@@H](CN(C)C(=O)Nc1ccc(OC)cc1)O2
55*	-6[16.7 µM]	CN(C)CC(=O)Nc1ccc2c(c1)[C@@H]1C[C@@H](CC(=O)NCc3cccc(F)c3)O[C@@H](CO)[C@@H]1O2
-3	-21[16.7 µM]	C[C@@H]1CCCCO[C@H](CN(C)C(=O)Nc2ccc3c(c2)OCO3)[C@@H](C)CN([C@H](C)CO)C(=O)c2cc(NC(=O)Cc3ccccc3)ccc2O1
2	-3[16.7 µM]	N#C[C@@H]1[C@H](c2ccc(-c3cncnc3)cc2)[C@@H](CO)N1C(=O)CN1CCOCC1
8	-11[16.7 µM]	CCC(=O)N(C)C[C@@H]1Oc2cc(-c3cccc(OC)c3)ccc2S(=O)(=O)N([C@H](C)CO)C[C@@H]1C
-3	31[16.7 µM]	C[C@H]1CN([C@@H](C)CO)C(=O)c2cccc(NC(=O)c3nc4ccccc4s3)c2O[C@@H]1CN(C)Cc1ccc(Cl)c(Cl)c1
4	64[16.7 µM]	Cc1noc(C)c1S(=O)(=O)Nc1ccc2c(c1)CC(=O)N([C@@H](C)CO)C[C@H](C)[C@H](CN(C)Cc1ccc(C(F)(F)F)cc1)O2
-5	7[16.7 µM]	C[C@H]1CCCCO[C@H](CN(C)C(=O)Nc2ccc3c(c2)OCO3)[C@@H](C)CN([C@@H](C)CO)C(=O)c2cc(NS(=O)(=O)c3ccc(F)cc3)ccc2O1
93	12[16.7 µM]	C[C@@H]1CN([C@@H](C)CO)C(=O)c2cc(-c3ccc(C#N)cc3)cnc2O[C@H]1CN(C)CC1CCCC1
-7	20[16.7 µM]	COc1ccc(NC(=O)Nc2ccc3c(c2)C(=O)N([C@@H](C)CO)C[C@@H](C)[C@H](CN(C)S(=O)(=O)c2cccs2)OCCCC[C@H](C)O3)cc1
10	-8[16.7 µM]	COc1cccc(-c2cnc3c(c2)C(=O)N([C@H](C)CO)C[C@@H](C)[C@H](CN(C)C(=O)CC2CC2)O3)c1
27	10[16.7 µM]	CCCC#Cc1ccc2c(c1)O[C@H](CN(C)S(C)(=O)=O)[C@@H](C)CN([C@H](C)CO)S2(=O)=O
-7	14[16.7 µM]	O=C(Nc1cc(Cl)cc(Cl)c1)N[C@@H]1CC[C@H](CCNS(=O)(=O)c2cccc(F)c2)O[C@@H]1CO
-9	-1[16.7 µM]	Cn1cnc(S(=O)(=O)N[C@@H]2C=C[C@H](CC(=O)Nc3ccccc3)O[C@@H]2CO)c1
3	-7[16.7 µM]	CNC(=O)C[C@@H]1CC[C@@H]2[C@@H](COc3ccc(NS(=O)(=O)c4ccc(F)cc4)cc3C(=O)N2C)O1
18	-3[16.7 µM]	Cc1noc(C)c1NC(=O)N(C)C[C@H]1Oc2ccc(NC(=O)NC(C)C)cc2CC(=O)N([C@H](C)CO)C[C@H]1C
2	3[16.7 µM]	CC(C)NC(=O)N(C)C[C@@H]1OCCCC[C@H](C)Oc2ccc(NS(C)(=O)=O)cc2C(=O)N([C@@H](C)CO)C[C@H]1C
-18	-35[16.7 µM]	C[C@@H]1CN([C@@H](C)CO)S(=O)(=O)c2ccc(C#Cc3ccncc3)cc2O[C@@H]1CN(C)C
-4	1[16.7 µM]	O=C(C[C@@H]1C=C[C@@H](NC(=O)Cc2ccccn2)[C@H](CO)O1)NCCc1ccncc1
16	25[16.7 µM]	C[C@H]1CCCCO[C@H](CN(C)Cc2ccc3c(c2)OCO3)[C@@H](C)CN([C@@H](C)CO)C(=O)c2cc(NC(=O)c3ccccc3)ccc2O1
16	-12[16.7 µM]	C[C@@H]1CN([C@@H](C)CO)C(=O)c2cc(NC(=O)c3ccncc3)ccc2O[C@@H](C)CCCCO[C@H]1CN(C)C(=O)Cc1ccccc1
-11	-3[16.7 µM]	COc1ccc(S(=O)(=O)N(C)C[C@H]2Oc3c(NS(=O)(=O)c4ccc(Cl)cc4)cccc3C(=O)N([C@H](C)CO)C[C@H]2C)cc1
0	43[16.7 µM]	COc1ccccc1-c1ccc2c(c1)O[C@H](CN(C)Cc1ccc3c(c1)OCO3)[C@H](C)CN([C@@H](C)CO)S2(=O)=O
7	-28[16.7 µM]	COc1ccc(-c2ccc3c(c2)O[C@@H](CN(C)C(=O)Nc2ccccc2F)[C@@H](C)CN([C@@H](C)CO)S3(=O)=O)cc1
11	17[16.7 µM]	CNC(=O)C[C@H]1CC[C@@H]2[C@H](COc3ccc(NC(=O)Nc4ccc(F)cc4)cc3C(=O)N2C)O1
0	-5[16.7 µM]	O=C(C[C@@H]1C=C[C@@H](NC(=O)C2CCOCC2)[C@@H](CO)O1)Nc1ccc(-c2ccccc2)cc1
-8	-5[16.7 µM]	O=[N+]([O-])c1ccccc1S(=O)(=O)N1CCN(Cc2ccc(OCCO)cc2)CC1
-8	15[16.7 µM]	C[C@@H]1CN([C@@H](C)CO)C(=O)c2cc(-c3ccncc3)cnc2O[C@@H]1CN(C)S(=O)(=O)c1ccccc1
9	-8[16.7 µM]	Cc1ccc(S(=O)(=O)Nc2cccc3c2O[C@@H](CN(C)S(C)(=O)=O)[C@@H](C)CN([C@@H](C)CO)C3=O)cc1
26	5[16.7 µM]	Cc1noc(C)c1NC(=O)N(C)C[C@H]1Oc2ccc(NS(C)(=O)=O)cc2CC(=O)N([C@H](C)CO)C[C@@H]1C
-8	-20[16.7 µM]	C[C@@H]1CN([C@H](C)CO)C(=O)c2cc(C#CC(C)(C)O)cnc2O[C@H]1CN(C)C(=O)CC1CC1
-5	0[16.7 µM]	C[C@H](CO)N1C[C@H](C)[C@H](CN(C)S(=O)(=O)c2cccs2)Oc2ccc(N(C)C)cc2CC1=O
-22	-13[16.7 µM]	C[C@@H]1CN([C@H](C)CO)C(=O)Cc2cc(NS(=O)(=O)c3cn(C)cn3)ccc2O[C@H]1CN(C)Cc1ccc2c(c1)OCO2
-14	66*[16.7 µM]	C[C@H](CO)N1C[C@H](C)[C@H](CN(C)Cc2ccc(C(F)(F)F)cc2)OCCCC[C@H](C)Oc2ccc(NC(=O)Nc3ccc(C(F)(F)F)cc3)cc2C1=O
8	-10[16.7 µM]	Cc1ccc(S(=O)(=O)Nc2cccc3c2O[C@@H](CN(C)S(=O)(=O)c2ccccc2)[C@H](C)CN([C@H](C)CO)C3=O)cc1
-11	-12[16.7 µM]	O=C(C[C@@H]1CC[C@H](NC(=O)Cc2ccccn2)[C@@H](CO)O1)NCCCN1CCOCC1
3	-9[16.7 µM]	Cc1ccc(S(=O)(=O)N(C)C[C@H]2Oc3ccc(NS(=O)(=O)c4ccc(F)cc4)cc3CC(=O)N([C@@H](C)CO)C[C@@H]2C)cc1
-8	6[16.7 µM]	C[C@@H]1CCCCO[C@H](CN(C)C(=O)CCC(F)(F)F)[C@@H](C)CN([C@@H](C)CO)C(=O)c2cc(NC(=O)CCCCCC(=O)Nc3ccccc3N)ccc2O1
0	-6[16.7 µM]	CCC(=O)N(C)C[C@@H]1Oc2cc(-c3ccc(OC)cc3)ccc2S(=O)(=O)N([C@@H](C)CO)C[C@H]1C
-10	40[16.7 µM]	C[C@H]1CN([C@@H](C)CO)S(=O)(=O)c2ccc(C3=CCCCC3)cc2O[C@H]1CN(C)S(=O)(=O)c1ccc(F)cc1
-15	-7[16.7 µM]	COc1ccc(NC(=O)N[C@@H]2CC[C@H](CCn3cc(-c4ccccc4)nn3)O[C@@H]2CO)cc1

An excerpt of these results, with two lines to a compound.
Results follow in this order: UUG fidelity | Env fusion inh
CNC(=O)C[C@H]1CC[C@@H]2[C@H](COc3ccc(NC(=O)Nc4ccc(F)cc4)cc3C(=O)N2C)O1
→ 11 | 17[16.7 µM]
Cc1ccc(S(=O)(=O)Nc2cccc3c2O[C@@H](CN(C)S(C)(=O)=O)[C@@H](C)CN([C@@H](C)CO)C3=O)cc1
→ 9 | -8[16.7 µM]
C[C@H]1CCCCO[C@H](CN(C)Cc2ccc3c(c2)OCO3)[C@@H](C)CN([C@@H](C)CO)C(=O)c2cc(NC(=O)c3ccccc3)ccc2O1
→ 16 | 25[16.7 µM]
Cc1ccc(S(=O)(=O)Nc2cccc3c2O[C@@H](CN(C)S(=O)(=O)c2ccccc2)[C@H](C)CN([C@H](C)CO)C3=O)cc1
→ 8 | -10[16.7 µM]

Further entries:
UUG fidelity	Env fusion inh	canonical_smiles
6	3[16.7 µM]	C[C@H](CO)N1C[C@H](C)[C@H](CN(C)CC2CCCCC2)Oc2ccc(NC(=O)C3CCCCC3)cc2C1=O
-1	2[16.7 µM]	C[C@@H]1CN([C@H](C)CO)C(=O)c2cc(NC(=O)Cc3ccccc3)ccc2O[C@@H]1CN(C)Cc1ccc(C(F)(F)F)cc1
6	9[16.7 µM]	Cc1noc(C)c1NC(=O)Nc1ccc2c(c1)C(=O)N([C@H](C)CO)C[C@H](C)[C@H](CN(C)Cc1ccc(Cl)c(Cl)c1)OCCCC[C@@H](C)O2
-5	-11[16.7 µM]	COc1ccccc1-c1cnc2c(c1)C(=O)N([C@@H](C)CO)C[C@@H](C)[C@@H](CN(C)Cc1cncnc1)O2
-7	7[16.7 µM]	C[C@H]1CN([C@@H](C)CO)S(=O)(=O)c2ccc(Br)cc2O[C@H]1CN(C)CC1CCOCC1
-26	-2[16.7 µM]	COc1cccc(S(=O)(=O)N[C@@H]2CC[C@H](CCn3cc(-c4ccccn4)nn3)O[C@H]2CO)c1
-8	-8[16.7 µM]	C[C@H]1CN([C@@H](C)CO)C(=O)c2cc(C#Cc3ccc(F)cc3)cnc2O[C@@H]1CN(C)C(=O)Nc1ccc(F)cc1
18	-12[16.7 µM]	O=C(Nc1ccc2c(c1)OCO2)N[C@@H]1CC[C@@H](CC(=O)N2CCN(c3ccccc3)CC2)O[C@@H]1CO
12	-21[16.7 µM]	CC(C)CC#Cc1ccc2c(c1)O[C@H](CN(C)C(=O)NC1CCCC1)[C@@H](C)CN([C@@H](C)CO)S2(=O)=O
17	-2[16.7 µM]	C[C@H]1CN([C@@H](C)CO)C(=O)c2cc(C#CCN(C)C)cnc2O[C@@H]1CN(C)C(=O)NC1CCCCC1
1	-9[16.7 µM]	COc1ccc(NC(=O)N(C)C[C@@H]2OCCCC[C@H](C)Oc3ccc(NC(=O)Nc4c(C)noc4C)cc3C(=O)N([C@@H](C)CO)C[C@H]2C)cc1
18	2[16.7 µM]	C=C[C@H](COC(C)=O)N(C(=O)OC(C)(C)C)S(=O)(=O)c1ccc(Br)cc1
8	-18[16.7 µM]	Cc1ccccc1-c1cnc2c(c1)C(=O)N([C@H](C)CO)C[C@H](C)[C@H](CN(C)Cc1cncnc1)O2
24	-27[16.7 µM]	C[C@H](CO)N1C[C@H](C)[C@@H](CN(C)Cc2ccc3c(c2)OCO3)OCCCC[C@H](C)Oc2ccc(NC(=O)Nc3ccc(F)cc3)cc2C1=O
-4	2[16.7 µM]	COCC#Cc1cnc2c(c1)C(=O)N([C@H](C)CO)C[C@@H](C)[C@H](CN(C)S(=O)(=O)c1cn(C)cn1)O2
6	-8[16.7 µM]	C[C@@H]1CN([C@H](C)CO)C(=O)Cc2cc(NC(=O)Cc3cn(C)c4ccccc34)ccc2O[C@H]1CN(C)Cc1ccc2c(c1)OCO2
-13	-5[16.7 µM]	CNC[C@H]1Oc2c(NS(=O)(=O)c3cn(C)cn3)cccc2C(=O)N([C@H](C)CO)C[C@H]1C
1	-29[16.7 µM]	C[C@@H]1CN([C@@H](C)CO)C(=O)c2cc(NS(=O)(=O)c3ccc(Cl)cc3)ccc2O[C@@H](C)CCCCO[C@H]1CN(C)C(=O)c1ccccc1
-5	-11[16.7 µM]	O=C(C[C@@H]1C=C[C@@H](NC(=O)Nc2ccc(C(F)(F)F)cc2)[C@@H](CO)O1)NCCN1CCCC1
-3	2[16.7 µM]	C[C@H](O)C#Cc1cnc2c(c1)C(=O)N([C@@H](C)CO)C[C@@H](C)[C@H](CN(C)C(=O)Nc1ccc(F)cc1)O2

Some of the entries above, set out differently:
Values run as follows: UUG fidelity | Env fusion inh
> C[C@H](CO)N1C[C@H](C)[C@H](CN(C)CC2CCCCC2)Oc2ccc(NC(=O)C3CCCCC3)cc2C1=O
    6 | 3[16.7 µM]
> C[C@H]1CN([C@@H](C)CO)C(=O)c2cc(C#CCN(C)C)cnc2O[C@@H]1CN(C)C(=O)NC1CCCCC1
    17 | -2[16.7 µM]
> C[C@H](CO)N1C[C@H](C)[C@@H](CN(C)Cc2ccc3c(c2)OCO3)OCCCC[C@H](C)Oc2ccc(NC(=O)Nc3ccc(F)cc3)cc2C1=O
    24 | -27[16.7 µM]
